Screening data from PubChem BioAssay.
N370S GC: inhibits or activates N370S mutant glucocerebrosidase | P04062 | N370S GC spleen homogenate, 4MU-glucoside fluorescence | Potency, µM (top dose mostly 59.4 µM), inactives show at the top dose activity change, negative = inhibition, usual class: inhibitors | 0.092% of 330,000 active | AID 2101; active = well fitted inhibition curve with a large enough effect; inconclusive = small, poorly fitted or top-dose-only effect, or effect the other way, or another doubt; inactive = no such curve, though single readings can be large or run the other way;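 note: 0% = full enzyme activity and -100% = no enzyme basal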
* hit, by the source's call; ? = inconclusive; & = joins results of further samples; [ ] = remark or other dose. Potency is the fitted concentration of half-maximal effect. Only part of the results is shown, and most or all hits are left out here.

A first look (three entries):
N370S GC | Structure
0.3% | CCOc1ncccc1C(=O)Nc1ncc(C)s1
6.1% | COc1ccc(S(=O)(=O)N2CCC(C(=O)NCc3ccncc3)CC2)cc1OC
5.7% | COc1ccc(C)cc1S(=O)(=O)Nc1ccc(F)c(Cl)c1

All compounds of this part, from the first entry:
N370S GC | Structure
0.3% | CCOc1ncccc1C(=O)Nc1ncc(C)s1
6.1% | COc1ccc(S(=O)(=O)N2CCC(C(=O)NCc3ccncc3)CC2)cc1OC
5.7% | COc1ccc(C)cc1S(=O)(=O)Nc1ccc(F)c(Cl)c1
-0.7% | Cc1ccc(NC2CCCN(C(=O)CCc3cn[nH]c3)C2)cc1C (stereo not given)
7.6% | COc1ccc(C(=O)CSc2[nH]c(=O)cc(C(F)(F)F)c2C#N)cc1
2.9% | COC(=O)CN(c1ccccc1)S(=O)(=O)c1ccccc1
-6.9% | COc1cccc(CNc2ccc3c(c2)ncn3C)c1OC
29.0% | CC1=C(C(=O)Nc2cc(C(=O)N3CCC(C)CC3)ccc2C)SCCO1
22.0% | CCCc1nc2oc(C(=O)OCC)c(N)c2c2c1COC(C)(C)C2
2.2% | Cc1ccc(S(=O)(=O)N2CCC(C(=O)N3Cc4ccccc4C3)CC2)cc1
1.9% | O=C(NC(=S)NC(CO)Cc1ccccc1)c1ccc(F)cc1 (stereo not given)
-6.3% | Cc1ccc(S(=O)(=O)C(C#N)=C2N(C)c3ccccc3N2C)cc1
-0.6% | COc1ccc(/C=N/NC(=O)CC(=O)NCc2cccnc2)cc1[N+](=O)[O-]
-1.6% | O=C(NC(=S)NC1CCS(=O)(=O)C1)c1ccccc1Br (stereo not given)
-3.6% | COc1ccccc1N1CCN(C2CCN(C(=O)c3cc(OC)c(OC)c(OC)c3)CC2)CC1
-11.5% | Cc1cccc(OCC(=O)Nc2c3c(nn2C(C)(C)C)CS(=O)(=O)C3)c1
-6.7% | CCN(CC)C(=O)N1CCN(S(=O)(=O)c2ccccc2)CC1
1.6% | CCOC(=O)c1nccnc1C(=O)Nc1cccc(C(F)(F)F)c1
6.4% | CCn1c(=O)cc(SCC(=O)NCc2ccccn2)c2ccccc21
-2.1% | Cc1cccc(NC(=O)CSCC(=O)NCc2cccc(C(F)(F)F)c2)c1
-1.6% | O=S(=O)([O-])C(c1ccccc1)[n+]1ccccc1 (stereo not given)
-4.4% | CCN(CC#CCC(O)(c1ccccc1)C1CCCC1)C(C)C (stereo not given)
-9.4% | CC(=O)Nc1nonc1-c1nc2ccccc2n1CCC#N
18.8% | CCc1nnc(NC(=O)C(NC(=O)c2ccccc2Cl)C(C)C)s1 (stereo not given)
1.3% | O=c1c2cccc3c2c(nn1-c1ccccc1)-c1ccccc1-3
2.5% | Cc1cc(C)nc(SCCN(C)C)n1
2.9% | CCCCCC[n+]1c(-c2ccccc2)csc1Nc1ccccc1
-12.0% | Cc1cc(C)n(-c2ccc(C(=O)Nc3cc(C(F)(F)F)ccc3N3CCOCC3)cc2)n1
0.3% | O=C(c1ccccn1)N(CC1CCCO1)C1(C(=O)NC2CCCCC2)CCCCC1 (stereo not given)
18.7% | CCOc1c(Br)cc(CNc2ccc3c(c2)OCCO3)cc1OC
-2.7% | C=CCn1c(C)nnc1SCC(=O)Nc1cc(S(=O)(=O)N2CCCC2)ccc1Cl
-2.1% | O=C(Nc1cccc([N+](=O)[O-])c1)ONC1=NCCCCC1
6.5% | CC(=O)Nc1sc(NC(=O)c2ccc(Cl)cc2)nc1-c1cccs1
-4.3% | CCC1CN(C(=O)N2CCC(C(=O)NCc3cc(OC)c(OC)c(OC)c3)CC2)c2ccccc2O1 (stereo not given)
-11.7% | COc1cccc(C(C[N+](=O)[O-])c2c(C)[nH]n(-c3ccccc3)c2=O)c1 (stereo not given)
1.8% | O=C(COC(=O)/C=C/c1ccccc1Cl)NCc1ccccc1
25.3% | CCOC(=O)N1CCN(c2c(N3CCN(c4ccccc4OC)CC3)c(=O)c2=O)CC1
-1.2% | CCn1c(CSc2nc3ccccc3s2)nnc1SCC(=O)c1ccc(O)c(O)c1
11.2% | CCOc1ccc(NC(=S)NC(=O)Cc2ccccc2)cc1
7.5% | O=C(NC(=S)N1CCCC1)c1cccc([N+](=O)[O-])c1
-1.1%&1.2% | N=C(N)c1ccc(N)cc1
-5.3% | O=C(O)COc1ccc(F)cc1Br
-20.5% | CCOC(=O)C1CCN(C(=O)COc2ccc(Br)cc2C)CC1
-17.1% | COc1ccc(S(=O)(=O)N(C(=O)c2ccncc2)c2ccc(OC(=O)c3ccncc3)cc2)cc1
12.8% | CN(CC(=O)NC1CCN(Cc2ccccc2)CC1)S(=O)(=O)c1ccc2c(c1)c(=O)n(C)c(=O)n2C
9.1% | O=Cc1cnc(N2CCN(Cc3ccccc3)CC2)s1
-9.5%[2.35 µM] | CC1=C(C(=O)N2CCCCC2)C(c2cccs2)NC(=O)N1 (stereo not given)
11.6% | Cc1ccc(NC(=O)CSCC(=O)NC2CCCCC2)cc1

An excerpt from above in order of SMILES length, highest first.
N370S GC | Structure
12.8% | CN(CC(=O)NC1CCN(Cc2ccccc2)CC1)S(=O)(=O)c1ccc2c(c1)c(=O)n(C)c(=O)n2C
-17.1% | COc1ccc(S(=O)(=O)N(C(=O)c2ccncc2)c2ccc(OC(=O)c3ccncc3)cc2)cc1
-1.2% | CCn1c(CSc2nc3ccccc3s2)nnc1SCC(=O)c1ccc(O)c(O)c1
11.6% | Cc1ccc(NC(=O)CSCC(=O)NC2CCCCC2)cc1
-5.3% | O=C(O)COc1ccc(F)cc1Br
-1.1%&1.2% | N=C(N)c1ccc(N)cc1

Remaining list, next part.
N370S GC | Structure
1.4% | CCn1nc(C)c(NC(=O)/C=C/c2ccc(OC)c(COc3ccc(Cl)cc3Br)c2)c1C
-13.3% | COc1cc2c(cc1OC)[C@H](C)N(C(=S)Nc1ccc(F)cc1)CC2
-3.1% | COc1cccc(-c2nc3ccc(C(=O)N4CCCC(O)C4)cc3o2)c1 (stereo not given)
-2.3% | COc1ccc(N2CCN(C(=O)c3ccc(CS(=O)Cc4ccc(Cl)cc4)o3)CC2)cc1 (stereo not given)
-16.7% | CC(/C=C/c1ccc2c(c1)OCO2)=N/NC(=O)COc1ccc(C)cc1
2.7% | Cc1cc(Cl)ccc1NC(=S)N1CCOCC1
2.9% | O=C(CN1CCN(C(=O)C2CCCO2)CC1)Nc1c(Cl)cccc1Cl (stereo not given)
6.6% | Cc1cc(C)n(-c2ccc(F)cc2)c(=O)c1C(=O)O
-0.2% | COc1ccc(Nc2nc(Nc3ccc(OC)cc3)nc(SC3=NCCS3)n2)cc1
-0.3% | COc1ccc2oc(C(=O)OCC(=O)NC(=O)NC(C)C)c(C)c2c1
8.2% | O=C(O)Cn1ncc2c1-c1ccoc1CC2
-2.0% | O=C(C(NS(=O)(=O)c1cccc2nsnc12)c1ccccc1)N1CCN(c2ccccn2)CC1 (stereo not given)
-6.2% | CCC1CCC(C(=O)NC(C(=O)NCCN2CCOCC2)C(C)C)CC1 (stereo not given)
0.6% | CNC(=O)COc1coc(CN2CCN(c3cccc(Cl)c3)CC2)cc1=O
9.3% | N=C1/C(=C\c2ccc(-c3cccc(Cl)c3)o2)C(=O)N=C2SC=C(c3ccccc3)N12
13.0% | CCOC(=O)C(NC(C)=O)(OCc1ccccc1)C(F)(F)F (stereo not given)
3.6% | CCOC(=O)N1CCN(Cc2nc(N)nc(Nc3ccccc3C)n2)CC1
? | COc1cc2c(cc1NC(=O)CSc1nnc(Cc3cccs3)n1Cc1ccco1)oc1ccccc12
7.3% | COc1ccc(/C=N/NC(=O)CNC(=O)c2cccs2)cc1
6.7% | N#CCCn1c(SCC(=O)Nc2ccc(N3CCOCC3)cc2)nc2ccccc21
-6.5% | CCOC(=O)C1=C(C)NC2=C(C(=O)CC(C)(C)C2)C1c1ccc(N(C)C)cc1 (stereo not given)
3.8% | Cc1cc(NC(=O)c2cc([N+](=O)[O-])cc([N+](=O)[O-])c2)n(-c2ccccc2)n1
15.3% | C/C(=N\NC(=O)CSCc1ccc(Cl)cc1)c1ccc2c(c1)OCCO2
-7.0% | O=C(COC(=O)C1CCN(c2ccc(C(F)(F)F)cn2)CC1)c1ccc(Cl)cc1
4.4% | COc1ccc(C(=O)NCCS(=O)(=O)NCc2ccccc2)cc1
-2.2% | CC(NC(=O)Cc1ccc(F)cc1)C(c1cccs1)N1CCN(C)CC1 (stereo not given)
-6.4% | CCOc1nc(NC(=O)NC(=O)c2ccccc2)nc(-c2ccccc2)n1
-16.2% | N/C(=C/C(=O)c1ccccc1O)C(F)(F)F
1.9% | COc1ccc([C@@H](C)C(=O)c2ccc(O)cc2O)cc1
11.7% | O=C(C1CC2C=CC1C2)N1CCN(c2ccccc2)CC1 (stereo not given)
24.7% | CCCC(=O)Nc1sc2c(c1C(=O)Nc1ccccn1)CCCC2
7.5% | CC(=O)c1sc(NC(=O)CCCOc2ccccc2C)nc1C
0.9% | CCOC(=O)N1CCN(C(=O)C(=O)NNC(=O)COc2ccc(Cl)c(C)c2)CC1
1.6% | CC(C)NS(=O)(=O)c1cc(C(=O)O)ccc1Cl
-14.4% | CC(=O)c1ccc(NS(=O)(=O)c2ccccc2)cc1
-0.9% | COc1cc(/C=N/NC(=O)c2cccnc2)ccc1OC(=O)c1cccc(Br)c1

Random excerpt: three compounds from above.
N370S GC | Structure
18.8% | CCc1nnc(NC(=O)C(NC(=O)c2ccccc2Cl)C(C)C)s1 (stereo not given)
5.7% | COc1ccc(C)cc1S(=O)(=O)Nc1ccc(F)c(Cl)c1
0.6% | CNC(=O)COc1coc(CN2CCN(c3cccc(Cl)c3)CC2)cc1=O

(cont.)
N370S GC | Structure
14.2% | O=c1cc(Cl)c(-c2ccccc2)n[nH]1
-4.0% | CCOc1cc(CNCc2ccccn2)cc(Cl)c1OCC
4.8% | CCOC(=O)CSc1ccc(S(=O)(=O)N(C)C2CCCCC2)cc1[N+](=O)[O-]
12.4% | COc1ccccc1OCCCC(=O)NCc1ccco1
0.2% | CCOc1ncccc1C(=O)OCC(=O)NC1CC1
-4.5% | Nc1nc2ccccc2n1/N=C/c1ccc2c(c1)OCO2
-3.3% | CN(C)CCn1c2c(c(SCC(=O)NCc3ccccc3)nc1=O)CCC2
22.9% | CCOC(=O)N1CCC(C(N)=O)CC1
-23.9% | O=C(O)C1C2C=CC(O2)C1C(=O)Nc1ccccc1C(F)(F)F (stereo not given)
? | O=C(NCc1cccs1)c1ccc2ccccc2n1
? | Cn1cnnc1SCc1nnc(-c2ccccc2Br)o1
5.9% | O=C(c1cccs1)N1CCN=C1SCc1cccnc1
-15.6% | CN(CC(=O)OCC(=O)NCC(F)(F)F)S(=O)(=O)c1ccc(Cl)cc1
7.8% | Cc1ccc(-c2csc(NC(=S)NC(=O)/C=C/c3ccco3)n2)cc1
1.2% | COc1cc(CNn2nnnc2N)cc(Br)c1OCC(=O)NC(C)(C)C
6.3% | CC1(C)SC(=S)N(NC(=O)Nc2ccccc2)C1N(O)C(=O)Nc1cccc2ccccc12 (stereo not given)
1.3% | O=C(Nc1ccc(F)c(Cl)c1)Nc1ccc(Cl)cn1
? | Cc1cc(C)c2cc(C(O)c3nnnn3Cc3ccccc3)c(=O)[nH]c2c1 (stereo not given)
4.2% | O=C(CSc1ncccn1)N1CCN(S(=O)(=O)c2ccccc2)CC1
4.5% | O=S(=O)(NCCNc1ncc(C(F)(F)F)cc1Cl)C(F)(F)F
-8.3% | CC(=O)c1c(C)nn(CCC(=O)O)c1C
2.7% | O=C(COc1ccc(Cl)cc1)OCc1csc(Nc2ccccc2)n1
15.7% | CCc1ccc(C(=O)Nc2cccnc2Oc2ccc(Cl)cc2)cc1
-8.7% | COc1ccc(C2=NN(C(=O)CCC(=O)O)C(c3ccccc3OC)C2)cc1 (stereo not given)
-19.9% | O=C(Nc1nc(-c2cccc([N+](=O)[O-])c2)cs1)c1cccc([N+](=O)[O-])c1C(=O)O
28.7% | CN(Cc1ccccc1)C(=O)c1cccc(N2C(=O)NC3CC2(C)Oc2ccccc23)c1 (stereo not given)
10.5% | Cc1ccc(C)c(N2CCN(C(=O)CN3C(=O)c4ccccc4C3=O)CC2)c1
1.3% | c1cn2c(NC3CCCC3)c(-c3ccc(N4CCOCC4)cc3)nc2cn1
-16.8% | Cc1ccc(NC(=O)CCn2c(=O)oc3ccccc32)cc1
-28.6% | FC(F)(F)c1cccc(N2CCN(CC3CC=CCC3)CC2)c1 (stereo not given)
4.9% | O=C(O)c1cccc(-n2nnnc2SCc2ccccc2Cl)c1
-1.4% | Cc1ccc(-c2cc(C(=O)N3CCC(C)CC3)c3ccccc3n2)cc1
6.2% | Cn1c(SCC(=O)Nc2nccs2)nnc1-c1ccco1
-4.7% | O=C1CC(C(=O)N2CCN(S(=O)(=O)c3cccc(F)c3)CC2)CN1Cc1ccccc1Cl (stereo not given)
-10.7% | O=c1c2ccccc2nc(SCc2ccc([N+](=O)[O-])cc2)n1-c1ccc(Cl)cc1
-25.7% | Cc1ccc(C)c(NC(=O)c2cc3c([nH]c4ccccc43)c(C)n2)c1
15.6% | CCC(=O)Nc1nc2ccccc2n1Cc1ccccc1Cl
11.3% | Cc1nn(CCc2nn[nH]n2)c2nc(-c3ccc(C4CCCCC4)cc3)cc(C(F)(F)F)c12
20.5% | Cc1cccc(N2CCN(C(=O)C3CCN(c4nnc(-n5cccc5)s4)CC3)CC2C)c1 (stereo not given)
0.3% | COc1ccc(-n2c(SCC(N)=O)nc3sc4c(c3c2=O)CCN(C)C4)cc1
0.8% | Cc1nc(SCC(=O)NCCc2ccccc2)n[nH]1
-3.1% | CCN(C(=O)COC(=O)c1ccc(Cl)nc1)C1CCS(=O)(=O)C1 (stereo not given)
8.2% | Cc1cccc2cc(CN(CC3CCCO3)C(=O)NC3CCCCC3)c(=O)[nH]c12 (stereo not given)
-1.9% | O=[N+]([O-])c1cc(C(F)(F)F)cc([N+](=O)[O-])c1Sc1n[nH]c(C(F)(F)F)n1
2.6% | CCOC(=O)c1cnc(-n2nc(C)cc2C)nc1NNc1ncc(-c2ccccc2)cn1
-11.2% | Cc1cc(=O)[nH]c(SCC(=O)NC2CCCc3ccccc32)n1 (stereo not given)
-16.4% | OC(CNCc1ccccc1Cl)C(F)(F)F (stereo not given)
